# Source: PubChem BioAssay
# MLL AF4-AF9 inh: inhibitors of AF4 peptide binding to AF9, primary screen, biochemical, AlphaScreen, biotin-AF4 peptide, FLAG-AF9, single point; Protein AF-9 (Homo sapiens), P42568; inhibition, % at 10 µM; actives 0.47% (n = 350,000);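 active means every replicate reaching a set inhibition limit, whatever the replicate mean, cut at about 25% in these data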;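 further: 0% = plate neutral control median and 100% = total signal loss; the record names both 10 and 1 µM as test concentration; the first replicate is given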
# Target sequence (P42568 whole entry, looked up): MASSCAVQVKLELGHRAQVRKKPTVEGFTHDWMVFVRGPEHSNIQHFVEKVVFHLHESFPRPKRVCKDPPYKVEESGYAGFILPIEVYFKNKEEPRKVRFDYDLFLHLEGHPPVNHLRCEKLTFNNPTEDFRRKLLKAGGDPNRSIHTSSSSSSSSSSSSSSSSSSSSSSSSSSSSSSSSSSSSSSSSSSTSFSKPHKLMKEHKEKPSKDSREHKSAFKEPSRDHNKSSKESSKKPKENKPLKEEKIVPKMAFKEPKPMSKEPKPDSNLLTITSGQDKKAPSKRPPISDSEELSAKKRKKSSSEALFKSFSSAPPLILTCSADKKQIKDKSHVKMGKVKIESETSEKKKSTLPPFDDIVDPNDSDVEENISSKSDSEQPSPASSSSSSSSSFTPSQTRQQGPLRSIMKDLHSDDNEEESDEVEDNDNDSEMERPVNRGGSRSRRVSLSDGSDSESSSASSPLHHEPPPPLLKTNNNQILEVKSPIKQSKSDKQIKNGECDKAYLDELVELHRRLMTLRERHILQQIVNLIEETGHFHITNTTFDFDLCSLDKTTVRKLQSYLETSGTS
# * marks the source's active call; other numbers are inactive results; & = joins results of further samples.
SMILES,MLL AF4-AF9 inh
CCCCC[C@@H]1[C@@H]2C(=C(OCC)C[C@@H]3C(=O)N(c4ccccc4)C(=O)[C@H]23)[C@H](c2ccccc2)N1S(=O)(=O)c1ccc(C)cc1,-0.3
COc1ccc(C2=Nc3ccccc3NC(=O)C2N(C(=O)c2cnc(C)cn2)c2ccc(N3CCOCC3)cc2)cc1 (stereo not given),4.8
C[C@H]1CN([C@@H](C)CO)C(=O)Cc2cc(NC(=O)CCC(F)(F)F)ccc2O[C@@H]1CN(C)CC1CC1,-2.1
C[C@@H]1CN([C@@H](C)CO)C(=O)c2cc(C#CC(C)(C)O)cnc2O[C@@H]1CN(C)C(=O)CN(C)C,-0.9
COc1ccccc1C#Cc1ccc2c(c1)O[C@@H](CN(C)Cc1ccncc1)[C@H](C)CN([C@@H](C)CO)S2(=O)=O,1.2
C#CCN(C[C@@H]1[C@@H](OC(=O)NCC2CCCCC2)[C@@H](OC(=O)NCC2CCCCC2)Cn2c(=O)ccc(=O)n21)S(=O)(=O)c1ccc(C)cc1,-2.4
C[C@@H]1CN([C@@H](C)CO)S(=O)(=O)c2ccc(C#CC3CC3)cc2O[C@@H]1CN(C)Cc1ccc(F)cc1,4.0
O=C(Nc1ccc(F)cc1)N1CCCCN2[C@H](CO)[C@H](c3ccc(-c4ccccc4F)cc3)[C@H]2C1,10.8
CN(C)CCNc1ncnc2c1ncn2[C@H]1CN(Cc2ccc3c(c2)OCO3)C[C@@H](CO)O1,2.1
Cc1ccc(S(=O)(=O)N(C)C[C@H]2OCCCC[C@H](C)Oc3ccc(NS(=O)(=O)c4ccc(F)cc4)cc3C(=O)N([C@@H](C)CO)C[C@@H]2C)cc1,3.1
Cc1cc(C(=O)Nc2ccc3c(c2)C(=O)N(C)[C@@H]2CC[C@H](CC(=O)NCc4ccc(-c5ccccc5)cc4)O[C@@H]2CO3)no1,0.2
O=C(N[C@H]1CC[C@H](CCNS(=O)(=O)c2ccc(Cl)cc2)O[C@@H]1CO)c1cnccn1,-1.3
O=C(CN1CCOCC1)N[C@H]1CC[C@@H](CCNC(=O)Nc2cc(F)ccc2F)O[C@@H]1CO,0.5
CCCNC(=O)Nc1ccc2c(c1)C(=O)N(C)C[C@@H](OC)[C@H](C)CN(Cc1cccnc1)[C@H](C)CO2,-0.6
COc1ccc(C(C)(C)C)cc1NC(=O)CN(C)C1=NS(=O)(=O)c2ccccc21,1.4
COc1ccc(CC(N)c2csc(Nc3cc(NCc4ccco4)ncn3)n2)cc1 (stereo not given),6.9
Cc1ccc(S(=O)(=O)N(C)C[C@@H]2Oc3c(NC(=O)c4cnccn4)cccc3C(=O)N([C@@H](C)CO)C[C@H]2C)cc1,-1.4
O=C(C[C@H]1C=C[C@H](NC(=O)Cc2cccnc2)[C@H](CO)O1)Nc1ccccc1,4.7
Cc1ccc(S(=O)(=O)N(C)C[C@@H]2Oc3ccc(NC(=O)NC4CCCCC4)cc3CC(=O)N([C@H](C)CO)C[C@H]2C)cc1,0.6
C[C@@H]1CN([C@@H](C)CO)C(=O)Cc2cc(NS(=O)(=O)c3cn(C)cn3)ccc2O[C@@H]1CN(C)Cc1ccccc1,-2.9
C[C@@H]1CN([C@@H](C)CO)C(=O)c2cccc(NC(=O)NC3CCCCC3)c2O[C@@H]1CN(C)C(=O)Nc1cccc2ccccc12,4.9
O=C(C[C@H]1C=C[C@H](NC(=O)NC2CCCCC2)[C@H](CO)O1)NCc1ccccc1,-0.3
C[C@H](CO)N1C[C@H](C)[C@@H](CN(C)C(=O)Cc2ccncc2)Oc2cc(C#CC3CCCCC3)ccc2S1(=O)=O,4.9
Cc1ccccc1-c1ccc(C2[C@@H]3CN(Cc4cccnc4)C[C@H]2N3)cc1 (stereo not given in full),13.3&8.6

# Quoted from above, 11 compounds:
SMILES,MLL AF4-AF9 inh
O=C(N[C@H]1CC[C@H](CCNS(=O)(=O)c2ccc(Cl)cc2)O[C@@H]1CO)c1cnccn1,-1.3
O=C(CN1CCOCC1)N[C@H]1CC[C@@H](CCNC(=O)Nc2cc(F)ccc2F)O[C@@H]1CO,0.5
CCCNC(=O)Nc1ccc2c(c1)C(=O)N(C)C[C@@H](OC)[C@H](C)CN(Cc1cccnc1)[C@H](C)CO2,-0.6
COc1ccc(C(C)(C)C)cc1NC(=O)CN(C)C1=NS(=O)(=O)c2ccccc21,1.4
COc1ccc(CC(N)c2csc(Nc3cc(NCc4ccco4)ncn3)n2)cc1 (stereo not given),6.9
Cc1ccc(S(=O)(=O)N(C)C[C@@H]2Oc3c(NC(=O)c4cnccn4)cccc3C(=O)N([C@@H](C)CO)C[C@H]2C)cc1,-1.4
O=C(C[C@H]1C=C[C@H](NC(=O)Cc2cccnc2)[C@H](CO)O1)Nc1ccccc1,4.7
Cc1ccc(S(=O)(=O)N(C)C[C@@H]2Oc3ccc(NC(=O)NC4CCCCC4)cc3CC(=O)N([C@H](C)CO)C[C@H]2C)cc1,0.6
C[C@@H]1CN([C@@H](C)CO)C(=O)Cc2cc(NS(=O)(=O)c3cn(C)cn3)ccc2O[C@@H]1CN(C)Cc1ccccc1,-2.9
C[C@@H]1CN([C@@H](C)CO)C(=O)c2cccc(NC(=O)NC3CCCCC3)c2O[C@@H]1CN(C)C(=O)Nc1cccc2ccccc12,4.9
O=C(C[C@H]1C=C[C@H](NC(=O)NC2CCCCC2)[C@H](CO)O1)NCc1ccccc1,-0.3

# The results go on:
SMILES,MLL AF4-AF9 inh
C[C@H](CO)N1C[C@H](C)[C@@H](CN(C)C)Oc2cc(C#CC3CCCC3)ccc2S1(=O)=O,1.2
COc1ccccc1-c1ccc(C2[C@H]3CNC[C@@H]2N3S(=O)(=O)c2ccc(C)cc2)cc1 (stereo not given in full),1.6&-3.5
C[C@@H]1CN([C@@H](C)CO)C(=O)c2cccc(N(C)C)c2O[C@@H]1CN(C)C(=O)NC1CCCCC1,-2.0
C[C@@H]1CN([C@H](C)CO)C(=O)c2cc(NS(C)(=O)=O)ccc2O[C@@H]1CN(C)Cc1ccccc1,-2.0
C[C@@H]1CCCCO[C@@H](CN(C)S(=O)(=O)c2ccccc2)[C@@H](C)CN([C@@H](C)CO)C(=O)c2cc(NC(=O)CCC(F)(F)F)ccc2O1,1.9
Cc1ccc(S(=O)(=O)NC(=O)ON=Cc2ccc3c(c2)OCO3)cc1,-7.1
O=C(c1[nH]c(C(F)(F)F)nc1-c1ccccc1)N1CCc2ccccc2C1,1.8
C[C@@H]1CN([C@H](C)CO)C(=O)Cc2cc(NC(=O)c3ccncc3)ccc2O[C@@H]1CN(C)C(=O)Nc1cccc2ccccc12,-2.2
C/C=C/c1ccccc1[C@H]1[C@@H](CO)N(C(=O)Nc2ccc(OC)cc2)[C@H]1C#N,5.3
Cc1cc2nc(-c3ccc(F)cc3)c(CC3CCCCC3)n2c(C)c1Br,-0.8
O=C(Cc1cccc(NC(=O)C2CCN(C(=O)c3ccccc3)CC2)c1)Nc1cccc(C(=O)N2CCOCC2)c1,-2.8
CCNC(=O)C[C@@H]1CC[C@@H]2[C@H](COC[C@H](O)CN2C(=O)CC)O1,-5.1
COc1ccc(CNC(=O)Nc2nc(C(N)c3ccccc3)cs2)cc1 (stereo not given),3.4
COc1ccc2c3c(n(C)c2c1)[C@H](CO)N(CC1CCCCC1)CC31CCN(C(C)=O)CC1,-4.7
C[C@@H]1CCCCO[C@H](CN(C)Cc2ccccc2)[C@@H](C)CN([C@H](C)CO)C(=O)c2cc(NS(=O)(=O)c3cn(C)cn3)ccc2O1,-11.9
CC(C)NC(=O)N(C)C[C@H]1Oc2ccc(NS(=O)(=O)c3ccc(F)cc3)cc2CC(=O)N([C@H](C)CO)C[C@H]1C,-0.4
COc1ccc(CN(C)C[C@H]2Oc3ccc(NC(=O)Nc4c(C)noc4C)cc3CC(=O)N([C@H](C)CO)C[C@H]2C)cc1,-2.0
Cc1noc(C)c1NC(=O)N(C)C[C@@H]1Oc2ccc(NS(=O)(=O)c3ccc(Cl)cc3)cc2C(=O)N([C@H](C)CO)C[C@@H]1C,-1.1
COc1cccc(S(=O)(=O)Nc2ccc3c(c2)C(=O)N(C)C[C@@H](OC)[C@H](C)CN(Cc2ccccc2F)[C@H](C)CO3)c1,3.7
COc1ccccc1-c1ccc([C@H]2[C@H](C#N)N(C(=O)C3CC3)[C@H]2CO)cc1,-1.4
C[C@H]1CN([C@@H](C)CO)C(=O)Cc2cc(NC(=O)NC3CCCCC3)ccc2O[C@@H]1CN(C)Cc1ccc(Cl)c(Cl)c1,-4.0
O=C(C[C@H]1CC[C@@H](NC(=O)C2CCC2)[C@H](CO)O1)NC1CCCCC1,-0.6
COC(=O)[C@]12CCCCC=C1N(Cc1ccc3c(c1)OCO3)C(=O)[C@H](CC(=O)N1CCC(c3ccccc3)CC1)C2,3.0
C[C@@H]1CN([C@@H](C)CO)C(=O)c2cc(NC(=O)Cn3cnnn3)ccc2O[C@H]1CN(C)Cc1ccc(Cl)c(Cl)c1,0.4
C[C@@H]1CN([C@@H](C)CO)C(=O)Cc2cc(NS(C)(=O)=O)ccc2O[C@@H]1CN(C)C(=O)Nc1cccc2ccccc12,-1.7
C[C@H](NC(=O)[C@H]1N[C@H]2c3ccc(-c4ccc(C(=O)N(C)C)cc4)c(=O)n3C[C@H]2[C@@H]1CO)c1ccccc1,1.0
COc1cccc(-c2ccc([C@H]3[C@H](CO)N4CCCCN(C(=O)c5ccc(F)cc5)C[C@@H]34)cc2)c1,-2.2
CC(=O)N1[C@@H]2Cn3c(ccc(C4=CCCC4)c3=O)[C@H]1[C@@H](C(=O)NC1CCCCC1)[C@@H]2CO,0.8
COCC(=O)N1[C@@H]2c3cccc(=O)n3C[C@@H]2[C@@H](CO)[C@@H]1C(=O)NCc1ccccc1,-0.3
C[C@H](CO)N1C[C@H](C)[C@@H](CN(C)CC2CCCCC2)Oc2ccc(NC(=O)NC3CCCCC3)cc2C1=O,0.1
CC(C)C#Cc1ccc([C@H]2[C@H](CO)N3CCCCN(C(=O)NC(C)C)C[C@@H]23)cc1,-1.2
COc1ccccc1NC(=O)N[C@H]1C=C[C@@H](CC(=O)N2CCC(Cc3ccccc3)CC2)O[C@@H]1CO,1.2
C[C@H]1CN([C@@H](C)CO)C(=O)Cc2cc(NC(=O)Cn3cnnn3)ccc2O[C@@H]1CN(C)CC1CC1,-1.3
CC(C)NC(=O)N(C)C[C@@H]1Oc2ccc(NC(=O)C3CCCCC3)cc2CC(=O)N([C@H](C)CO)C[C@H]1C,-3.4
Cc1ccc(S(=O)(=O)N(C)C[C@@H]2Oc3c(NC(=O)Nc4c(C)noc4C)cccc3C(=O)N([C@H](C)CO)C[C@H]2C)cc1,1.0
C[C@@H]1CN([C@H](C)CO)C(=O)c2cccc(NC(=O)C3CC3)c2O[C@H]1CN(C)S(=O)(=O)c1cn(C)cn1,-0.6
CC(C)c1cn(CC[C@H]2CC[C@@H](NC(=O)C3CCC3)[C@H](CO)O2)nn1,-1.7
C[C@@H]1CN([C@H](C)CO)C(=O)CCCn2cc(nn2)CO[C@H]1CN(C)Cc1ccc(C(=O)Nc2ccccc2N)cc1,6.0
C[C@H]1CN([C@@H](C)CO)C(=O)Cc2cc(NC(=O)CCCCCC(=O)Nc3ccccc3N)ccc2O[C@@H]1CN(C)C(=O)Nc1cccc2ccccc12,-1.7
CC(C)NC(=O)N(C)C[C@H]1Oc2cc(-c3cncnc3)ccc2S(=O)(=O)N([C@@H](C)CO)C[C@H]1C,-1.5
Cc1noc(C)c1NC(=O)N(C)C[C@@H]1Oc2ccc(NS(=O)(=O)c3ccc(F)cc3)cc2C(=O)N([C@H](C)CO)C[C@@H]1C,-0.7
CC(=O)NC[C@H]1[C@@H](c2ccc(C#C[C@H](C)O)cc2)[C@@H](CO)N1Cc1ccccn1,-6.1
CNC[C@@H]1OCCCC[C@H](C)Oc2ccc(NS(=O)(=O)c3ccc(OC)cc3)cc2C(=O)N([C@@H](C)CO)C[C@@H]1C,0.3
Cc1noc(C)c1NC(=O)N(C)C[C@@H]1Oc2ccc(NC(=O)c3ccncc3)cc2C(=O)N([C@H](C)CO)C[C@H]1C,0.1
COC(=O)Cn1nnnc1-c1nc2cc(C)c(C)cc2[nH]c1=O,1.6
CN(C)c1ccc(-c2[nH][nH]c(=O)c2NC(=O)c2ccc3ccccc3n2)cc1,-4.2
Cc1noc(C)c1S(=O)(=O)Nc1ccc2c(c1)C(=O)N([C@H](C)CO)C[C@@H](C)[C@@H](CN(C)Cc1ccc(Cl)c(Cl)c1)OCCCC[C@H](C)O2,4.2
C/C=C/c1ccc([C@H]2[C@@H](CO)N[C@@H]2CN(C(=O)c2ccccc2F)C(C)C)cc1,7.5
CCCCNc1cccc2c1S(=O)(=O)N[C@H](Cc1ccccc1)CO2,-3.3
CCCc1cn(CC[C@@H]2CC[C@H](NC(=O)Cc3cccnc3)[C@@H](CO)O2)nn1,-1.7
C[C@@H]1CN([C@H](C)CO)C(=O)c2cc(NC(=O)CCCN(C)C)ccc2O[C@H]1CN(C)S(=O)(=O)c1ccc(Cl)cc1,-3.7
C[C@@H](NC(=O)C[C@H]1C[C@@H]2c3cc(NS(C)(=O)=O)ccc3O[C@@H]2[C@H](CO)O1)c1ccccc1,-1.4
C[C@@H]1CN([C@H](C)CO)C(=O)c2cc(-c3ccc(C#N)cc3)cnc2O[C@@H]1CN(C)C(=O)CC1CC1,-0.7
C[C@@H]1CN([C@H](C)CO)C(=O)c2cc(C#CC3CCCCC3)cnc2O[C@@H]1CN(C)S(C)(=O)=O,-1.9
N[C@@H](Cc1cnc[nH]1)C(=O)Nc1ccc2ccccc2c1,6.5
C[C@H](CO)N1C[C@H](C)[C@H](CN(C)S(=O)(=O)c2cccc(F)c2)Oc2ncc(/C=C/c3ccccc3)cc2C1=O,5.6
C[C@@H]1CN([C@@H](C)CO)C(=O)CCCn2cc(nn2)CO[C@@H]1CN(C)C(=O)Nc1ccc(-c2cccs2)cc1,1.4
C[C@H]1CN([C@@H](C)CO)C(=O)Cc2cc(NC(=O)Nc3ccc4c(c3)OCO4)ccc2O[C@H]1CN(C)C(=O)Nc1cccc2ccccc12,0.7
CN1[C@@H]2c3ccc(-c4ccccc4)c(=O)n3C[C@@H]2[C@@H](CO)[C@@H]1C(=O)Nc1ccccc1,-0.1

# Only part of the results is shown (hit frequency here may not be typical).
